Ba CapD inh: blocks the Bacillus anthracis CapD enzyme | z-score (concentration not given with the values) | AID 492967 | hit rate 0.23% among 140,000 | purified CapD enzyme, fluorescence intensity read-out; active compounds read low; some hits fall short of the stated cut;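 active = z-score under -4 in either of two replicates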;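 note: stock transfer was 100 nL into about 40 µL; score is relative to mean and spread of the plate; one replicate is shown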
AID504770: growth inhibitors of E. coli YBA685 in a screen for V. cholerae RctB (chromosome II replication) inhibitors; hit rate 0.27% among 130,000; E. coli YBA685 rctB-dependent plasmid, OD600 growth, 3 h; active compounds read low; AID 504770; z-score (no concentration beside the values);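 active = z-score under -2 on both plates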;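 note: wells of about 30 µL received 100 nL stock; score is relative to mean and SD of the test wells; the first replicate is given; strong numbers were not always called active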
The depositor's hits bear a star; x = not tested or not shown; & = joins results of further samples.

Start of the data: the first 7 records, ahead of the listing:
mol | AID504770 | Ba CapD inh
Cc1n[nH]c(C)c1-c1c(C)n[nH]c1C | -0.1 | 0.425
COc1cc(C)c(C(C)C)cc1S(=O)(=O)n1nnc2ccccc21 | x | 1.4
O=c1c(F)cn(C2CCCO2)c(=O)n1Cc1cccc2ccccc12 (centres undefined) | 0.9 | -0.805
Cc1cccc2nc(CSc3nnc(-c4ccccc4)o3)cn12 | -0.65 | x
COc1ccccc1NC(=O)/C=C1\NC(=O)CS1 | -0.35 | x
CCC(C)C(Oc1nc(OC)cc(OC)n1)C(=O)O (centres undefined) | x | -0.245
O=C(CSc1ccc(C(F)(F)F)cc1[N+](=O)[O-])Nc1cc(C(F)(F)F)cc(C(F)(F)F)c1 | x | -0.185

The listing, from the first entry:
mol | AID504770 | Ba CapD inh
Cc1n[nH]c(C)c1-c1c(C)n[nH]c1C | -0.1 | 0.425
COc1cc(C)c(C(C)C)cc1S(=O)(=O)n1nnc2ccccc21 | x | 1.4
O=c1c(F)cn(C2CCCO2)c(=O)n1Cc1cccc2ccccc12 (centres undefined) | 0.9 | -0.805
Cc1cccc2nc(CSc3nnc(-c4ccccc4)o3)cn12 | -0.65 | x
COc1ccccc1NC(=O)/C=C1\NC(=O)CS1 | -0.35 | x
CCC(C)C(Oc1nc(OC)cc(OC)n1)C(=O)O (centres undefined) | x | -0.245
O=C(CSc1ccc(C(F)(F)F)cc1[N+](=O)[O-])Nc1cc(C(F)(F)F)cc(C(F)(F)F)c1 | x | -0.185
c1ccc2c(C3Nc4cccc5cccc(c45)N3)cccc2c1 | x | -0.69
O=C(OCC(=O)N1CCCCCC1)c1ccc(Cl)nc1 | -0.65 | 0.985
CCOC(=O)C1=C(N)Oc2ccc3ccccc3c2C1c1ccc2c(c1)OCO2 (centres undefined) | x | 0.205
CC(C)CCn1c(SCC(=O)Nc2nccs2)nc2ccsc2c1=O | x | 0.685
O=C1CC(n2nc(-c3ccccc3Cl)n(-c3ccccc3)c2=S)C2COC1O2 (centres undefined) | x | 2.41
CSc1ccc(/C=N/O)cc1 | -0.1 | x
O=C(O)c1ccc2c(c1)nnn2C1CCCCC1 | 0.7 | x
CCN(CC(=O)Nc1ccc2c(c1)OCCO2)CC(=O)Nc1cc(C)on1 | -0.65 | x
O=C(NCCOc1ccccc1)c1ccc2c(c1)OCO2 | -0.85 | -0.725
COc1ccc2cc(-c3csc(-c4cccnc4)n3)ccc2c1 | 0.85 | 1.36
c1ccc(-c2ccnc(-c3cc(-c4ccccc4)ccn3)c2)cc1 | 0.35 | 1.73
COc1ccc(-c2nnco2)cc1OC | 0.5 | x
COc1ccc(S(=O)(=O)NCc2cccn2Cc2ccccc2C)cc1 | -1.15 | 0.36
Clc1cccc(Cl)c1CSc1nc2nccc(-c3ccccc3)n2n1 | x | 3.81
O=C(CCc1nc2cccnc2n1Cc1ccccc1)N1CCCCC1 | 0.85 | -0.26
CN(C)c1ccc(/C=C2\CCC/C(=C\c3ccc(N(C)C)cc3)C2=O)cc1 | x | -0.825
COCc1cc(=O)[nH]c(SCCS(=O)(=O)c2ccc(Cl)cc2Cl)n1 | 0 | -0.355

Four entries picked at random from those above, as already listed:
mol | AID504770 | Ba CapD inh
COc1ccc2cc(-c3csc(-c4cccnc4)n3)ccc2c1 | 0.85 | 1.36
O=C(CCc1nc2cccnc2n1Cc1ccccc1)N1CCCCC1 | 0.85 | -0.26
COc1ccc(-c2nnco2)cc1OC | 0.5 | x
O=C(NCCOc1ccccc1)c1ccc2c(c1)OCO2 | -0.85 | -0.725

(cont.)
mol | AID504770 | Ba CapD inh
CC1(C)CN=C(Nc2ccccc2)S1 | x | -0.67
Cc1ccc(-n2c(O)c(C=NCCC3=CCCCC3)c(=O)[nH]c2=O)cc1 | 1.1 | 0.345
NC(=O)c1c(N)sc2c1CCCCC2 | -1.3 | x
Cc1cc(C)n(CCCNS(=O)(=O)c2cccs2)n1 | -0.45 | x
Cn1ccc(=O)c2ccccc21 | -0.5 | 2
COC(=O)CC(N)c1cccc2ccccc12 (centres undefined) | 0.6 | 0.48
CC(C)(C)c1ccc(OCNC(=S)NC(=O)c2cncc(Br)c2)cc1 | 0.2 | 0.26
C=CCC1(O)C(=O)N2C(=C1C(=O)N1CCOCC1)c1ccccc1CC2(C)C (centres undefined) | x | 5.17
Cc1occc1-c1cc(N)n(-c2cccc(Cl)c2Cl)n1 | 0.75 | 0.065
O=C(NN=C1CCN(S(=O)(=O)c2ccccc2)CC1)c1ccccc1 | x | -0.71
CC[C@@]1(O)C[C@H](OC2CC(N(C)C)C(OC3CC(O)C(OC4CCC(=O)C(C)O4)C(C)O3)C(C)O2)c2c(cc3c(c2O)C(=O)c2c(O)cccc2C3=O)[C@H]1C(=O)OC (some centres undefined) | x | 0.93
CCCc1cnc(Oc2ncnc3cc(Cl)ccc23)nc1 | -0.85 | -0.575
CCOC(=O)N1CCN(CC(O)COc2ccc3c(c2)CCC3)CC1 (centres undefined) | -0.95 | -0.66
COc1ccc(C(=O)Nn2c(-c3cc(OC)c(OC)c(OC)c3)nc3ccccc3c2=O)cc1OC | x | -0.6
N#CCC(Cc1ccccc1)c1ccco1 (centres undefined) | -1.2 | 0.4
COC(=O)c1c(C)oc2ccc(N(C(=O)c3ccccc3Cl)S(=O)(=O)c3cccc([N+](=O)[O-])c3)cc12 | x | -0.285
O=C(OCCS(=O)(=O)c1ccc(Cl)cn1)c1cccc(Cl)c1 | x | -0.08
CC(=O)OCC(=O)[C@@]1(O)CCC2C3CCC4=CC(=O)CC[C@]4(C)C3C(=O)C[C@@]21C (some centres undefined) | 0 | 1.38
OC1CCN(Cc2nnnn2Cc2ccccc2)CC1 | 1.25 | x
COc1cccc2c1OC1=C(C(=O)CC(C)(C)C1)C2CC(=O)c1ccc(O)cc1 (centres undefined) | 1.4 | 0.25
Cc1ccc(Cl)cc1NC(=O)CO/N=C(\N)c1ccccc1 | -0.35 | x
Cc1ccccc1NC1=NCC(C)(C)S1 | 0.45 | 0.91
CNC(=O)c1oc2c(c1C)-c1nn(Cc3cccc(Cl)c3)cc1CC2 | 0 | 3.4
FC(F)(F)c1cccc(Oc2cc(C(F)(F)F)nc(-c3ccccn3)n2)c1 | x | -0.495
O=C(CCC(=O)N1CCSc2ncccc21)NCc1cccc(Cl)c1 | -0.85 | 0.92
CC(C)NC(=O)CC1Nc2ccccc2NC1=O (centres undefined) | -0.85 | 1.16
O=C(Nc1ccc(Cl)cc1)c1ccc(-c2csnn2)cc1 | x | 0.045
O=c1oc(-c2ccccc2)nc2ccsc12 | 0.75 | -0.2
CCOc1ccc(N2C(=O)C3C4C=CC(CC4)C3C2=O)c([N+](=O)[O-])c1 (centres undefined) | x | -0.1
O=C(O)C1CC(=O)N(Cc2ccccc2)C1 (centres undefined) | -0.15 | 0.265
Cc1cccc(NC2=NCC(C)S2)c1 (centres undefined) | x | -0.78
Cc1c(C(=O)NC2CCCCC2)oc2ccccc12 | 0.2 | x
CCOC(=O)N1CCC(N2Cc3cccc(C(=O)N4CCN(C(=O)c5ccco5)CC4)c3C2=O)CC1 | 0 | -0.92
Cc1nnsc1C(=O)Nc1nn(C)c2cccc(F)c12 | -0.4 | -0.58
COc1ccc(C(=O)NN2C(=O)C3C(c4ccccc4)C=CC(c4ccccc4)C3C2=O)cc1 (centres undefined) | x | 1.14
Cc1ccc2nc(NC(=O)c3cccs3)sc2c1 | -0.2&3.55 | 10.8
CCOC(=O)c1cc(-c2cc3ccccc3o2)n[nH]1 | 0.75 | x
CCCNC(=O)CN1C(=O)COc2ccccc21 | -1 | 3.05
O=C(Nc1ncnc2oc(-c3ccccc3)c(-c3ccccc3)c12)c1ccco1 | x | 62.9
CCOc1ccc(NC(=O)c2ccc(N3CC4CC(C3)c3cccc(=O)n3C4)c(NC(=O)c3ccccc3Cl)c2)cc1 (centres undefined) | x | -0.515
O=C(CSc1nc2ccccc2c(=O)n1CCCC(=O)N1CCN(c2ccccc2)CC1)NCc1ccccc1 | x | -0.765
COc1ccccc1N1CCN(C(=O)c2sc3nc(C)nc(N4CCOCC4)c3c2C)CC1 | x | 0.06
CCOC(=O)CSc1nc(C#N)c(SCC(=O)OCC)s1 | -0.25 | -0.075
c1ccc(-c2nnc(-c3ccncc3)o2)cc1 | -0.6 | -0.395
O=C(Nc1ccc2nn(-c3ccccc3)nc2c1)C(F)(F)F | -1.85 | 40.8
CC1=C(C)C2C(=O)N=C(c3ccc(-c4ccc(C(=O)O)cc4)o3)N=C2S1 (centres undefined) | 2.7 | 29.2
CCC(=O)NC1CC(=O)N(c2ccc(F)cc2)C1 (centres undefined) | -0.3 | x
CCCCc1nc2ccccc2c(C(=O)O)c1C | 0.1 | x
CCc1cccc2c3c([nH]c12)C(CC)(CC(=O)O)OCC3 (centres undefined) | -0.1 | -0.33&-0.55
Cc1ccc([N+](=O)[O-])cc1-n1c(C)c(CC(=O)O)c2c1CC(C)(C)CC2=O | x | -0.32
O=C(O)CCCN1Cc2ccccc2C1 | 1.6 | 0.345
COc1ccc(C(O)c2nccn2C)cc1 (centres undefined) | 0.65 | -0.2
CC(C)N(C(=O)CSc1nnc2sc3ccccc3n12)C(C)C | 0.6 | x
Nc1cc(-c2ccccc2)nc2ccccc12 | -0.35 | 21.2
CCN(CC)c1ccc(-n2c(C)c(C(=O)O)c3cc(OC)c4ccccc4c32)cc1 | x | 0.195
c1cncc(-c2[nH]ncc2-c2ccnc3ccccc23)c1 | x | 0.1
Cc1cccc(-c2nnc(N(C(=O)C3CCC3)C(C)C)s2)c1 | 2.05 | x
CCOC(=O)c1sc2nc(C)nc(SCc3nnc(-c4ccc(Cl)cc4)o3)c2c1C | -1.4 | x
COc1cccc(-n2c(-c3cccc(S(=O)(=O)N(C)C)c3)n[nH]c2=S)c1 | 1.45 | x
CC(C)(C)c1cc(CN2CCCCCC2)cc(C(C)(C)C)c1O | x | 0.8

Continued.
mol | AID504770 | Ba CapD inh
FC(F)(F)c1cccc(-c2noc(C3CCNCC3)n2)c1 | x | -0.38
Nc1cc(C(F)(F)F)ccc1OCc1ccccc1 | 0.95 | 0.56
C=CCN1C(=O)C2(OCCO2)c2cc(C)ccc21 | x | -0.62
O=C(NNc1cc(Cl)ccc1Cl)C(O)(c1ccc(Cl)cc1)c1ccc(Cl)cc1 | x | -0.035
N#Cc1ccccc1COc1ccccc1C(N)=O | -0.3 | x
CCOC(=O)c1cc(NC(=O)CSc2ncnc3sc4c(c23)CCCC4)cc(C(=O)OCC)c1 | x | -0.295
CCOC(=O)CNc1n[nH]c(N)n1 | 0.25 | 0.34
Cc1cc(C)n(C(=O)C2CCCN2S(=O)(=O)c2ccccc2)n1 (centres undefined) | -0.15 | -0.1
CC(C)(C)OC(=O)N1CCCC1COC(=O)N1CCN(c2ccc(C(F)(F)F)cc2)CC1 (centres undefined) | x | -0.45
O=C(NNC(=O)c1cc(=O)n(-c2ccccc2)[nH]1)c1ccc2nsnc2c1 | x | -0.98
O=C1NC(=O)N(c2ccc(Cl)cc2)C(=O)/C1=C/c1ccc(Br)o1 | x | -2.17
Cc1ncc(NS(=O)(=O)c2ccc(NC(=O)NC3CCCCC3)cc2)c(C)n1 | -0.4 | -0.195
CCOc1ccc(N=CC2C(Oc3ccc(Cl)cc3)C(=O)N2c2ccc(OCC)cc2)cc1 (centres undefined) | 0.15 | -1.48
CCc1nc2ccccc2c(NC(=O)CN2CCCCC2)c1C | -0.75 | -0.035
Cc1cc(C(=O)CSc2nncs2)c(C)n1CC1COc2ccccc2O1 (centres undefined) | 0.35 | x
CC(=O)n1c2ccccc2c2c(C#N)c(N3CCCCC3)sc21 | -0.25 | -0.285
NS(=O)(=O)c1ccc(NC(=O)c2cc(-c3ccc4c(c3)OCO4)nc3ccccc23)cc1 | -0.2 | 0.46
O=C(CN1CC(=O)Nc2ccccc21)Nc1ccc(N2CCCCC2)cc1 | -0.65 | x
COc1cc(C2c3c(oc4ccc(F)cc4c3=O)C(=O)N2CC2CCCO2)ccc1O (centres undefined) | 0.35 | 0.945
CCC(C)NC(=O)CSc1cc(C)nc2c(-c3ccccc3OC)c(C)nn12 (centres undefined) | -0.4 | -1.06
Cc1nc(SCC(=O)c2ccc3c(c2)OCCO3)c2c3c(sc2n1)CCC3 | x | -0.08
Nc1cccc(C2OCCCO2)c1 | -1 | 0.23
CC(C)CC(NC(=O)c1ccccc1Cl)C(=O)O (centres undefined) | 1.25 | 0.705
N#CCn1c(CN2CCN(c3cccc(C(F)(F)F)c3)CC2)nc2ccccc2c1=O | 0.5 | x
Nn1c(SCC(=O)N(C2CCCC2)C2CCS(=O)(=O)C2)nnc1C(F)(F)F (centres undefined) | -0.15 | x
Cc1c(-c2ccccc2)oc2c(C(=O)O)cccc2c1=O | 2.05 | -0.345
Cc1nc(N2CCOCC2)c2c(C)c(C(=O)NCc3ccc(F)cc3)sc2n1 | x | 3.2
CC1CCCC(NC(=O)COC(=O)c2ccccc2O)C1C (centres undefined) | 0.15 | 0.235
CC(=O)Nc1cccc(SC(F)(F)F)c1 | 1.3 | 0
NNC(=O)COc1ccccc1F | -0.1 | x
NCCNC(=O)c1ccncc1 | -0.55 | x
O=C(Nc1cccnc1)C12CC3CC(CC(C3)C1)C2 | 0.05 | x
O=C(O)CCSc1ncnc2nc[nH]c12 | x | 0.575
CC(C)n1cc(-c2ccc(S(C)(=O)=O)cc2NC(=O)Nc2ccc(F)cc2F)cn1 | x | 2.12
CC1CCCC(C)N1C(=O)c1cc(=O)c2ccccc2o1 (centres undefined) | 1.1 | -0.41
CC1CCCC(C)N1C(=O)COC(=O)c1ccc(O)cc1 (centres undefined) | 0.75 | 0.47
O=C1NC(=O)/C(=C\c2ccc(OCc3ccc(Cl)cc3Cl)cc2)S1 | x | -0.055
COc1ccc(C(=O)Nn2c(-c3ccc(F)cc3)nc3ccccc3c2=O)cc1Br | x | 0.51

Assay outcomes from PubChem BioAssay.
